# Compound activity deposited in PubChem by Southern Research Institute.
# Mtb growth – Mycobacterium tuberculosis H37Rv growth inhibition, cell based, confirmatory dose response (AID 1949); 100,000 compounds, 1.6% hits; M. tuberculosis H37Rv growth inhibition; inhibition, % at 10 µg/mL, or IC50 in µg/mL where a hit was titrated; most inactive calls were filed without a number and no value below 0 was filed;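 active means confirmed in a dose series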;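 further: bacteria grown 7 days with compound before Alamar blue readout; 0% = untreated bacteria and 100% = reference antibiotic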
# Active calls of the source: *; i = inactive. A portion of the library; rates above refer to the full screens.
SMILES,Mtb growth
Cc1cc(=O)oc2c1c(-c1ccccc1)nn2-c1cccc(C(=O)O)c1,i
Cc1nnc(SCC(=O)NC(C)(C)C)n1NCc1c(F)cccc1Cl,i
CC(C)(C)c1ccc(C(=O)NC(=S)Nc2ccc(C(=O)O)c(Cl)c2)cc1,30.4%
Cc1c(Cl)cccc1NC(=O)c1ccc(CN2CCc3ccccc3C2)cc1,i
CC(C)C(=O)N1CCN(c2ccc(NC(=O)c3cc4ccccc4o3)cc2Cl)CC1,4.8%
COc1ccccc1N1CCN(C2CCN(S(=O)(=O)c3ccc(NC(C)=O)cc3)CC2)CC1,i
COc1ccc(N2CCN(CC(=O)Nc3ccc(Oc4ccccc4)cc3)CC2)cc1,47.9%
CC(Oc1ccc(Br)cc1)C(=O)NCc1ccncc1 (stereo not given),2.4%
CCC(CO)NCc1ccc(Cl)cc1 (stereo not given),i
CCOC(=O)c1c(NC(=O)CN(c2cccc(F)c2)S(C)(=O)=O)sc2c1CCCC2,12.6%
O=C(Nc1nnc(C(c2ccccc2)c2ccccc2)s1)c1cncc(Br)c1,i
CC1CCCCN1C(=O)C(C)(C)Oc1ccc(Cl)cc1 (stereo not given),i

# Next section; the last 2 above are carried over.
SMILES,Mtb growth
O=C(Nc1nnc(C(c2ccccc2)c2ccccc2)s1)c1cncc(Br)c1,i
CC1CCCCN1C(=O)C(C)(C)Oc1ccc(Cl)cc1 (stereo not given),i
CC1CCN(S(=O)(=O)c2ccc(NC(=O)c3cc4ccccc4oc3=O)cc2)CC1,i
COc1cc(Cl)c(C)cc1NC(=O)c1cc(Cl)ccc1Cl,i
CCOc1ccc(C(=O)Nc2cccc(C(=O)OC)c2)cc1Cl,i
COc1ccc(OC)c(NS(=O)(=O)c2cc(OC)ccc2OC)c1,i
NCC(=O)Nc1ccc(Br)cc1C(=O)c1ccccc1,0.1%
COc1ccc(NC(=O)CN2CCN(c3cc(Cl)ccc3Cl)CC2)cc1,i
O=C(Nc1nnc(-c2cccnc2)s1)c1ccc(Cl)cc1,i
O=C(NCC(F)(F)F)NNC(=O)c1ccccc1Br,i
Cc1ccnc(NS(=O)(=O)c2ccc(NC(=O)CSc3nc(-c4ccccc4)cc(=O)[nH]3)cc2)n1,3.9%
COc1ccc(Cc2nnc(NC(=O)c3cccc(C)c3[N+](=O)[O-])s2)cc1,i
Cc1ccc(OCCN2CCCCC2)c([N+](=O)[O-])c1,i
Cc1ccccc1OCc1nc(C#N)c(N2CCCCCC2)o1,i
O=C(CSc1nnc(Cc2cccs2)n1-c1ccccc1)NCc1cccs1,6.0%
Cc1ccccc1C(=O)NC(=S)NC1CCCC1,4.9%
CC(=O)c1ccc(NC(=O)C2CCCN2S(=O)(=O)c2ccc(C)cc2)cc1 (stereo not given),i
CC(C)COc1ccccc1OCC(C)C,i
CC(NS(=O)(=O)c1ccc(Cl)cc1)C(=O)Nc1ccc2c(c1)OCCO2 (stereo not given),i
CN1C(=O)N(C)C(=O)C(CC(=O)N2CCCCC2)(CC(=O)N2CCCCC2)C1=O,i
COc1ccc(CCNC(=O)COc2ccc3c(-c4ccccc4)cc(=O)oc3c2C)cc1OC,1.2%
O=C(Cc1ccccc1Cl)NCc1cccnc1,0.9%
C=CCn1c(CNC(=O)c2ccccc2F)nnc1SCC(=O)Nc1ccccc1C(=O)OC,i
COc1ccccc1OCC(=O)Nc1ccc(S(=O)(=O)Nc2cc(C)on2)cc1,i
COc1ccc(Cl)cc1NC(=S)NN1CCN(C)CC1,i
CCCCC(=O)Nc1ccc(NC(=O)c2cccc(OCC)c2)cc1OC,1.8%
COc1ccc(S(=O)(=O)Nc2cc(Sc3ccccc3)c(O)c3ccccc23)cc1,5.29µg/mL*
O=C1NC(=O)C(=Cc2ccc(OC(=O)c3cccs3)cc2)C(=O)N1,43.5%
NC(=O)c1c(NC(=O)c2ccc(Br)o2)sc2c1CCC2,i
O=C(CSC1=NCCS1)Nc1ccc(Cl)cn1,5.5%
c1ccc(Cc2nn3c(Cn4cnc5ccccc54)nnc3s2)cc1,i
CCN1C2=C(C(=O)CCC2)C(c2ccccc2OCc2ccc(F)cc2)C2=C1CCCC2=O,4.0%
CCCCNS(=O)(=O)c1ccc(NC(=O)c2cccc(Cl)c2)cc1,i
O=S(=O)(Nc1nccs1)c1ccc(NCc2cc(Br)ccc2O)cc1,i
O=C(C1CCN(C2CC(=O)N(c3ccc(F)cc3)C2=O)CC1)N1CCOCC1 (stereo not given),i
C/C(=N/Nc1nc(C)c(C)s1)c1ccc(Br)cc1,0.59µg/mL*
COc1ccc(C(=O)Nc2cccc(C(=O)N3CCCC3)c2)cc1,i
CCn1c(CNc2ccc(C(=O)O)cc2)nc2ccccc21,i
CCOC(=O)NC1CCC(NC(=O)OCC)CC1 (stereo not given),i
O=C(Nc1ccc(I)cc1C(=O)N1CCCCCC1)c1ccco1,i
CC(C)OC(=O)c1c2c(n3ccccc13)C(=O)c1ccccc1C2=O,11.4µg/mL*
COc1cccc(NC(=O)CC2Sc3ccccc3NC2=O)c1 (stereo not given),i
C=CCn1c(SCCCC)nc(O)cc1=O,4.8%
COc1ccccc1NC(=S)Nc1cccc(C)c1,i
COC(=O)c1sc2cc(NC(=S)Nc3cc(OC)c(Cl)cc3OC)ccc2c1Cl,4.9%
CCC(C)c1ccccc1OCC(=O)Nc1ccc(C(C)=O)cc1 (stereo not given),i
CCN1CCN(c2ccc(NC(=O)c3cc(Cl)c(OC)c(Cl)c3)cc2)CC1,i
CCOc1ccc(C2CC(=O)C3=C(C2)Nc2ccccc2NC3c2ccc(OC)c(O)c2)cc1OC (stereo not given),i
CCc1ccc(OCC(=O)N(C)C)c(Br)c1,i
COC(=O)c1ccc(C(=O)OC)c(NS(=O)(=O)c2ccc(OC)c(Br)c2)c1,i

# Filtered by structure: those above with an aryl thioether with sulfur outside any ring.
SMILES,Mtb growth
Cc1nnc(SCC(=O)NC(C)(C)C)n1NCc1c(F)cccc1Cl,i
Cc1ccnc(NS(=O)(=O)c2ccc(NC(=O)CSc3nc(-c4ccccc4)cc(=O)[nH]3)cc2)n1,3.9%
O=C(CSc1nnc(Cc2cccs2)n1-c1ccccc1)NCc1cccs1,6.0%
C=CCn1c(CNC(=O)c2ccccc2F)nnc1SCC(=O)Nc1ccccc1C(=O)OC,i
COc1ccc(S(=O)(=O)Nc2cc(Sc3ccccc3)c(O)c3ccccc23)cc1,5.29µg/mL*
C=CCn1c(SCCCC)nc(O)cc1=O,4.8%

# (cont.)
SMILES,Mtb growth
Cc1ccccc1Cn1nc(C)c(NC(=O)c2ccccc2)c1C,i
Cc1ccc(S(=O)(=O)CCSc2nc(C3CC3)cc(C(F)(F)F)c2C#N)cc1,3.0%
CN(c1ccc(O)cc1)c1nc(-c2cccs2)cs1,6.5%
Cc1ccc(C(=O)N2CCC(C(N)=O)CC2)cc1,i
COc1cc2c(cc1OC)C(c1cc(Br)ccc1OC)CC(=O)N2 (stereo not given),i
COc1ccc(NC(=S)NCCC(C)C)cc1,i
COC(=O)Cc1c(C)c2ccc(OCC(=O)c3ccc(Cl)cc3)c(C)c2oc1=O,3.5%
O=C(Nc1ccc(I)cc1F)c1c(F)c(F)c(F)c(F)c1F,i
Cc1ccc(NC(=O)c2cnn3c(C(F)F)cc(C)nc23)c(C)c1,i
Cn1nc(-c2ccc(N3CCN(c4ccccc4)CC3)c([N+](=O)[O-])c2)c2ccccc2c1=O,i
CCOc1ccc(Cl)cc1CSc1nnc(CC)n1N,1.6%
Cc1cc(Br)c2c(c1)C1(C(=O)N2C)C(C#N)=C(N)Oc2n[nH]c(-c3ccccc3)c21 (stereo not given),2.4%
CCN(CC)C(=O)CSC1=C(C#N)C(c2cc(OC)c(OC)c(OC)c2)CC(=O)N1 (stereo not given),i
COc1ccc(C(C)=O)cc1COc1ccc([N+](=O)[O-])c(C)c1,i
O=C(Nc1ccc(Cl)c(Cl)c1)NC1CCN(Cc2ccccc2)CC1,0.7%
CCOc1ccc(N2C(=O)c3cccc4c([N+](=O)[O-])ccc(c34)C2=O)cc1,i
Cc1noc(C)c1C(=O)N1CCc2ccccc21,1.3%
COc1ccc(-c2cc(C(F)(F)F)n3ncc(C(=O)NCc4ccco4)c3n2)cc1OC,0.3%
Fc1ccc(NC(=S)NCCc2cnc[nH]2)cc1Cl,i
Cc1c(Br)c(=O)oc2ccccc12,0.3%
Cc1cccc(C(=O)Nc2nnc(SCC(=O)Nc3cccc(C)c3C)s2)c1,0.1%
c1ccc2c(CN3CCC(N4CCCC4)CC3)c[nH]c2c1,0.9%
Cn1cnnc1SCC(=O)Nc1ccccc1F,1.0%
COc1ccc(Cl)cc1N(C(C)=O)c1nc(C)cc(C)c1C#N,0.5%
O=C(O)c1cccc2cccc(SC(C(=O)O)c3ccccc3)c12 (stereo not given),i
COc1cccc(C(=O)NCCO)c1OC,i
Cc1cc(C)c(Cn2c(CO)nc3ccccc32)c(C)c1,48.6%
C=CCn1c2ccccc2c2nnc(SCC(=O)Nc3sc4c(c3C(=O)OCC)CCC4)nc21,i
O=C(Nc1ccc(Cc2ccc(NC(=O)C3CCCC3)cc2)cc1)C1CCCC1,i
Cn1c(=O)[nH]c2nnc(/C=C/c3ccccc3)nc2c1=O,i
CCS(=O)(=O)n1nc(-c2ccccc2)nc1NCc1ccco1,2.7%
CCn1c(C(C)NC(=O)c2ccc(Cl)cc2)n[nH]c1=S (stereo not given),i
O=c1c2c3c(sc2ncn1/N=C/c1ccccc1OC(F)F)CCCC3,i
Cc1cccc(NC(=O)CN(c2cc(Cl)cc(Cl)c2)S(C)(=O)=O)c1C,i
N#Cc1cc2c(nc1SCC1(O)CCCc3ccccc31)CCCC2 (stereo not given),5.5%
CC1(C)C(=O)C2(C(=O)Nc3ccc(Cl)cc3Cl)CCC1C2 (stereo not given),3.2%

# Part of the list above in order of heavy-atom count, ascending.
SMILES,Mtb growth
COc1cccc(C(=O)NCCO)c1OC,i
CCn1c(C(C)NC(=O)c2ccc(Cl)cc2)n[nH]c1=S (stereo not given),i
O=C(O)c1cccc2cccc(SC(C(=O)O)c3ccccc3)c12 (stereo not given),i
Cc1cccc(NC(=O)CN(c2cc(Cl)cc(Cl)c2)S(C)(=O)=O)c1C,i
C=CCn1c2ccccc2c2nnc(SCC(=O)Nc3sc4c(c3C(=O)OCC)CCC4)nc21,i

# Remaining list, next part
SMILES,Mtb growth
COc1cccc(NC(=O)C2CCCN(S(=O)(=O)c3ccc(C)cc3)C2)c1 (stereo not given),i
COc1ccc(NC(=O)CN2CCN(C(=O)N3CCOCC3)CC2)cc1,i
CCOC(=O)C1CCN(C(=O)CN(c2ccccc2Cl)S(C)(=O)=O)CC1,i
COc1ccc(-c2csc3ncn(CC(=O)Nc4c(C(C)C)cccc4C(C)C)c(=O)c23)cc1,i
COc1cc([N+](=O)[O-])ccc1NC(=S)N1CCN(c2ccc(C(C)=O)cc2)CC1,i
COc1ccc(C(=O)Nc2ccc3c(c2)C(=O)NC3=O)cc1,i
CC(=O)NCc1cccc(CNC(C)=O)c1,i
Fc1ccc(Nc2ncnc3ccc(Br)cc23)cc1,46.4%
CCc1cc(C(=O)OC)c(NC(=S)N2CCN(Cc3ccc(Cl)c(Cl)c3)CC2)s1,10.4%
O=C(NS(=O)(=O)c1ccc2ccccc2c1)c1ccccc1,1.2%
CCCC(C)NC(=O)COc1ccc(Cl)cc1Cl (stereo not given),2.6%
Cc1ccc(C)c(S(=O)(=O)NCC(=O)O)c1,i
COc1ccc(Oc2c(C)oc3c(C)c(OC(C)=O)ccc3c2=O)cc1,i
O=C1CCCCC1C(O)c1ccc(Br)cc1 (stereo not given),i
CCC(C)NCCCCOc1cccc(Cl)c1Cl (stereo not given),2.9%
COCCn1c(COC)nc2ccccc21,i
Cc1ccc(NC(=O)CC2(CC(=O)O)CCCC2)cc1,i
O=C(Nc1ccc(Br)cn1)c1cc(F)c(F)cc1Cl,4.0%
CC(C)(CSc1ccccn1)NS(=O)(=O)c1ccccc1,0.1%
Cc1ccc2nc(-c3cc(NC(=O)c4cccc(Cl)c4)ccc3O)oc2c1,i
O=C1NN(c2ccc(Br)cc2)C(=O)/C1=C\c1ccc(OC(=O)c2cccs2)cc1,36.6%
CCCOc1ccc(-c2csc3ncn(CCc4ccccc4)c(=O)c23)cc1,i
Cc1oc2cc(CC(=O)Nc3ccc(F)cc3F)ccc2c(=O)c1-c1ccccc1F,0.7%
COc1ccc(CCNC(=O)COc2ccc(S(=O)(=O)NCC(C)C)cc2Cl)cc1OC,i
CNC(=O)C1=NCCCc2cc(OC)c(OC)cc21,i
CC(C)Oc1ccc2ccccc2c1C=O,i
O=C(CNCc1cccnc1)Nc1cc(Cl)cc(Cl)c1,i
Cc1ccc2c(Cl)c(C(=O)Nc3nc(C)cs3)sc2c1,i
COC(=O)c1ccc(C(=O)Nc2nc3ccc(Nc4cc(C#N)c(C#N)cc4[N+](=O)[O-])cc3s2)cc1,13.8%
COc1ccc(NC(=O)CN2CCN(S(=O)(=O)c3ccc(Cl)cc3)CC2)cc1,i
CC(C)(O)C#Cc1ccc(C#Cc2ccc(C#CC(C)(C)O)cc2)cc1,i
O=C(Nc1cccc(C(F)(F)F)c1)c1cc2cc(Br)ccc2oc1=O,i
C=CCOc1ccc(Cl)cc1CNCc1ccccc1,15.4%
CCC(=O)Nc1ccccc1N1CCN(S(C)(=O)=O)CC1,1.6%
O=C(Oc1ccc2c3c(c(=O)oc2c1)CCCC3)C(F)(F)F,i
CCCc1cc2c(-c3ccccc3)cc(=O)oc2cc1OCC(=O)OC,5.24µg/mL*
COC(=O)c1sc(NC(=S)Nc2ccccc2-c2ccccc2)c(C(=O)OC)c1C,i
COc1cc(C(=S)N2CCN(C)CC2)ccc1OCC(=O)NCc1ccccc1,i
Cc1ccnc(NC(=O)CSc2nnc3c(n2)[nH]c2ccccc23)c1,i
CC1=C(C(=O)N2CCOCC2)C(c2ccc(OC(F)(F)F)cc2)C2=C(CCCC2=O)N1 (stereo not given),i
Cc1nc2cc(-c3ccc(I)cc3)[nH]n2c(=O)c1Cl,i
CC(=O)Nc1ccccc1-c1nc2ccccc2nc1OCC(=O)c1ccc(Cl)cc1,2.3%
CC(=O)c1ccc(OC(=O)c2ccc(C)c(I)c2)cc1,i
Cc1cccc(OCCCCN2CCOCC2)c1C,i
